Compound activity as filed in PubChem.
ClpP mod: qHTS Assay for Activators of ClpP; AID 651965, 2013; purified B. subtilis ClpP, FRET peptide cleavage, 20 min; ATP-dependent Clp protease proteolytic subunit (Bacillus subtilis (strain 168)), P80244; 1.9% of 340,000 active; Potency, µM (highest dose often 57.5 µM), without a hit: at the highest dose activity change, negative = active; active = well fitted falling curve with a large enough effect; inconclusive = small, poorly fitted or top-dose-only effect; inactive = no such curve, though single readings can be large or run the other way; also: potency is read from the fitted curve at half-maximal effect; the source files actives as falling curves though it sought activators and does not explain the sign; nearly all actives have a fitted effect of over 65% in size; many hits overshoot -100%
Target sequence (P80244 whole entry, looked up): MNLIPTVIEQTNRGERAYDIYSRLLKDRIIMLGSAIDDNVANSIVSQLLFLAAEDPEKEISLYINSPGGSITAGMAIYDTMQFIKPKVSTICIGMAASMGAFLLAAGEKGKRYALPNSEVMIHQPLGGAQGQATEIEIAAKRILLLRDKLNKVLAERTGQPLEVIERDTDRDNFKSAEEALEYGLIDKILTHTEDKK
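FRET quenching reversal measured ClpP activation: 10 microg/mL B. subtilis ClpP at pH 8 with the FRET-FV decapeptide, read at 430 nm after 320 nm excitation. The 20-min minus 0-min signal was scaled between DMSO/no-enzyme wells and ADEP (5.8 microM final).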
gsp agonist: qHTS for Agonist of gsp, the Etiologic Mutation Responsible for Fibrous Dysplasia/McCune-Albright Syndrome: qHTS. gsp mutant cells, cAMP HTRF, 30 min; control for the full effect not named in the record. Potency, µM (top dose mostly 76.9 µM), without a hit: top-dose activation (cAMP increase), actives largely listed as activators. 0.13% of 340,000 active. AID 624287, 2012; active = well fitted activation curve with a large enough effect; inconclusive = small, poorly fitted or top-dose-only effect, or another doubt; inactive = no such curve, though single readings can be large or run the other way; cell line not stated here;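 also: phosphodiesterase inhibitor Ro 20-1724 added with compounds to block cAMP breakdown; potency is read from the fitted curve at half-maximal effect; nearly all actives have a fitted effect of over 60% in size; about a fifth of the inactives were tested at one dose only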
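Cells stably selected in G418 were plated at 2000/well, grown 16-24 hr, then given compounds in DMSO with the PDE inhibitor […] (300 uM solution added) for 30 min at 37C; cAMP was read by HTRF.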
TRPV1 potentiator: HTS Assay for Compounds that Act as Potentiators of the Vanilloid Receptor 1; Transient receptor potential cation channel subfamily V member 1 (Homo sapiens), Q8NER1; TRPV1-expressing cells, Fluo-8 calcium influx, capsaicin EC20 potentiation; host cell line not named in the record; control for the full effect not named in the record; potentiation, % at 8.33 µM; 0.02% of 320,000 active; AID 540277, 2011; active means potentiation above 80%; inconclusive means 30% to 80%; inactive means below 30%; also: 0% is about no effect
Target sequence (Q8NER1 whole entry, looked up): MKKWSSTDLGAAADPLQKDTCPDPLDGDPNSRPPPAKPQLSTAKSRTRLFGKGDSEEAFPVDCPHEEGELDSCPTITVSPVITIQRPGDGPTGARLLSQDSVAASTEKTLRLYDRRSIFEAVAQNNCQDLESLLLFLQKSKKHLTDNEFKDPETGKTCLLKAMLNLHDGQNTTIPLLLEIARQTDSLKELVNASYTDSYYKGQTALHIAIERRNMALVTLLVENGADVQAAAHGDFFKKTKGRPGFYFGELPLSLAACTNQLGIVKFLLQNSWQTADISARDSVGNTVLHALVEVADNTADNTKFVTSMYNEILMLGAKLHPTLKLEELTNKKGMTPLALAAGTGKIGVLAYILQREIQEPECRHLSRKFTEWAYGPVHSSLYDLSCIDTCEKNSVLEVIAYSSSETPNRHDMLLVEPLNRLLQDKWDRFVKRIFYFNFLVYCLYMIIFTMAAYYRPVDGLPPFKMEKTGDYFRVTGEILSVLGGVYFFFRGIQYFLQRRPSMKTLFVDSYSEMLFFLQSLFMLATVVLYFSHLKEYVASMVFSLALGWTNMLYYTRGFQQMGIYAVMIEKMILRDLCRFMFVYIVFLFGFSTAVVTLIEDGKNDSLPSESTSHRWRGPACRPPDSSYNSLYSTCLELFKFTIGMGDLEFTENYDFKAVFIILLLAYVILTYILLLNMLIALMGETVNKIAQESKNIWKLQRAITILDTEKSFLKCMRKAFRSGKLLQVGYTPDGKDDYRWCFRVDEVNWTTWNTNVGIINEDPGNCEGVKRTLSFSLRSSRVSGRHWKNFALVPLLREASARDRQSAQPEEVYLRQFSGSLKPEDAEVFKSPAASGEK
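Fluo-8 calcium influx in TRPV1-expressing cells, kinetic read (ex 480/em 520 nm). Compound added and read 3 min for agonist activity, followed by capsaicin at EC20 final and 2 min further read for enhancement.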
CtBP-E1A inh: qHTS Assay for Inhibitors of the CtBP/E1A Interaction. CtBP / adenovirus E1A interaction (AlphaScreen). AlphaScreen GST-E1A/His-CtBP binding, 1536-well; stronger effect = lower value; control for the full effect not named in the record. activity change, % (test concentration not listed). 0.49% of 340,000 active; in the data active means activity change below about -65%; inconclusive means about -30% to -65%; inactive means above about -30%; also: % is scaled to controls: 0 for no effect and ±100 for the full control effect; compound concentration not given in the record
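Protein mix (5X: 125 nM each GST-E1A, His-CtBP) was incubated with pinned compound 2 h at 37 deg C in dark, in 50 mM Tris pH 8.0 buffer with 300 mM NaCl. Glutathione donor and nickel acceptor beads followed; AlphaScreen signal read after 1 h.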
Sfp PPTase inh: qHTS Assay for Inhibitors of Bacillus subtilis Sfp phosphopantetheinyl transferase (PPTase). 4'-phosphopantetheinyl transferase ffp (Bacillus subtilis), Q9F4F7. Biochemical Sfp PPTase activity, qHTS. Potency, µM, for inactives: max response, negative = inhibition, usual class: inhibitors. 3.5% of 310,000 active. AID 1490, 2009; active = well fitted inhibition curve with a large enough effect; inconclusive = small, poorly fitted or top-dose-only effect, or another doubt; inactive = no such curve, though single readings can be large or run the other way;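 also: the enzyme is Sfp with the accession as filed and its product quenches rhodamine fluorescence; potency is read from the fitted curve at half-maximal effect; 0% = enzyme reaction without inhibitor and -100% = no enzyme wells; top concentration of the series not given in the record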
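After 15 min at room temperature with compound, 15 nM Sfp received 5 uM rhodamine-CoA plus 12.5 uM BHQ-2-ybbR (50 mM Hepes pH 7.6, 10 mM MgCl2). Rate came from the fluorescence difference over 30 min, ex 525/em 598 nm.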
gsp antag: qHTS for Antagonists of gsp, the Etiologic Mutation Responsible for Fibrous Dysplasia/McCune-Albright Syndrome: qHTS; AID 624288, 2012; Potency, µM (top dose mostly 76.9 µM), without a hit: at the highest dose activity change, negative = inhibition, most hits filed as inhibitors; 0.4% of 340,000 active; gsp-mutant cells, cAMP HTRF, 30 min; control for the full effect not named in the record; active = falling curve of any shape with a large fitted effect; inconclusive = falling curve, mostly with a smaller effect; inactive = flat or rising curve; cell line not stated here;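 also: intracellular cAMP measured with PDE inhibitor Ro 20-1724 present during compound exposure; potency is read from the fitted curve at half-maximal effect; % is scaled to controls: 0 for no effect and ±100 for the full control effect; nearly all actives have a fitted effect of over 65% in size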
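Cells in G418 medium, seeded 16-24 h, 37C; buffer exchange to DPBS + 1 mM CaCl2, 0.5 mM MgCl2, 0.05% BSA; cpds in DMSO + […] (300 uM stock), 30 min 37C; HTRF cAMP detection.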
Menin MLL FP FL: qHTS Assay for Inhibitors Targeting the Menin-MLL Interaction in MLL Related Leukemias: Competition With Fluorescein Labeled MLL-derived Peptide. Fluorescence polarization, fluorescein-MLL peptide displacement from menin. FP activity change, % at 61.4 µM. 290,000 tested, under 10 active; inconclusive = falling polarisation curve, or a change in total fluorescence; inactive = total fluorescence flat and polarisation flat or rising; no compound was filed as active; the % refers to the polarisation; negative = inhibition;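 also: % of control where 0% means no effect; inhibitors lower the polarisation; unlabelled MLL peptide was the positive control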
The depositor's hits bear a star; u = inconclusive; x = not tested or not shown; & = joins results of further samples; [ ] = another dose, or the depositor's remark. Rows were taken by chance, and some 5.3% of all compounds hit somewhere here.

entry	Compound	Sfp PPTase inh	ClpP mod	CtBP-E1A inh	Menin MLL FP FL	gsp agonist	TRPV1 potentiator	gsp antag
1	C=CCCN(C(CC(C)C)C(=O)OC)S(=O)(=O)c1ccccc1Br (stereo not given)	7.5%&5.0%	-0.3%	8.1	1.3&1.7	x	-8.0	-10.4%
2	CCN1CCCC1CNC(=O)c1cc(OC)c(OC)c(OC)c1 (stereo not given)	13.2%	-11.8%	-0.7	0.3	-37.1%[inhibitor]	4.2	15.1%
3	COc1ccc(Cl)cc1NC(=O)Nc1cccc([N+](=O)[O-])c1C	u	0.6%	-0.9	-2.3	u	-6.7	u
4	O=C(C1CCCO1)N1CCN(c2ccc(F)cc2)CC1 (stereo not given)	-14.4%	-6.9%	4.2	6.0	-1.3%	-9.1	8.0%
5	COc1ccc(CCNC(=O)c2nnc(CS(=O)(=O)c3ccccc3)o2)cc1OC	9.3%	-1.6%	3.8	1.5	-22.2%	-16.6	8.3%
6	Cc1ccc(NC(=O)COc2ccc(Cl)cc2Cl)cc1S(=O)(=O)N1CCOCC1	x	u	-18.0	x	u	5.9	-2.4%
7	c1ccc(-n2cc(CNCCc3cscn3)c(-c3ccc4c(c3)OCO4)n2)cc1	-2.8%	x	-9.5	0.3	11.5%	-14.2	-1.3%
8	CC(=O)c1ccc(S(=O)(=O)Nc2ccc(C(=O)NCCCn3ccnc3)cc2)cc1	x	-10.9%	x	x	-2.9%	10.3	-7.2%
9	C/C(=N\NC(=O)c1ccc(-c2ccccc2)cc1)c1cccc(N)c1	3.6%	x	0.0	-0.6	14.0%[15.4 µM]	-15.9	x
10	Cc1cccc(OCCC(=O)NNC(=O)Cn2nc(C)cc2C)c1	x	-0.9%	5.8	x	4.2%	x	1.7%
11	Cc1c(Cc2ccccc2)sc(NC(=O)c2ccco2)c1C(N)=O	-9.3%	u	-12.6	0.4	-25.5%	25.8	2.5%
12	CC(C)(C(=O)O)c1ccc([C@H](O)CCCN2CCC(C(O)(c3ccccc3)c3ccccc3)CC2)cc1	13.4%	0.9%	5.0	0.9	x	12.3	-12.9%
13	O=C(N/N=C/c1ccccc1)c1ccc2c(c1)OCO2	17.8%	0.5%	2.8	0.8	0.5%	15.5	1.1%
14	O=C(Cc1ccc(F)cc1)Nc1ccc(S(=O)(=O)N2CCCCC2)cc1	6.2%	x	-5.0	-1.4	-0.7%[15.4 µM]	-7.1	7.2%
15	COc1ccc(/C=C(/C(=O)N2CCCCC2C(=O)O)c2ccc(OC)c(OC)c2)cc1 (stereo not given)	x	-0.9%	-4.7	x	-2.3%	x	9.4%
16	CCC(C(=O)Nc1nc(C)c(C)s1)c1ccccc1 (stereo not given)	50.1µM*	0.0%	-1.3	1.8	6.5%[15.4 µM]	-18.6	-20.1%
17	O=C1CCCC(O)=C1C(C#Cc1ccccc1)C1=C(O)CCCC1=O	-77.1%	-2.1%	-10.9	0.7	20.9%	3.9	3.5%
18	O=C(C1CCCN1S(=O)(=O)c1cccc2cccnc12)N1CCc2ccccc21 (stereo not given)	20.1%	-0.2%	0.3	0.4	40.7%	-9.3	-14.5%
19	CC(NC(=O)CN1C(=O)NC(c2ccccc2)(c2ccccc2)C1=O)c1cccs1 (stereo not given)	x	-3.5%	-5.4	x	-4.0%	-3.1	-0.5%
20	COc1ccc(C(=O)OCC(=O)Nc2ccc3[nH]c(=O)[nH]c3c2)c(OC)c1OC	x	-5.3%	-2.0	x	-3.6%	6.7	7.7%
21	COC(=O)[C@H](CC(C)C)NC(=O)CCc1nnc(COc2ccccc2)o1	-8.3%	x	1.0	4.5	u	-3.1	0.6%
22	C=CCn1ccc(=NC=C(C#N)C#N)c2ccccc21	14.7%	x	5.9	u	-4.9%[15.4 µM]	-7.5	0.5%
23	CCOCCCNS(=O)(=O)c1ccc(OC)c(Cl)c1Cl	-8.8%	-0.2%	17.6	8.8	4.1%	4.8	6.1%
24	NC(=O)Cn1nnc(-c2ccc(NC(=O)c3ccc(F)cc3)cc2)n1	10.6%	x	-8.1	0.4	-6.0%[15.4 µM]	2.1	3.0%
25	COc1cc(C(c2c(C)[nH][nH]c2=O)c2c(C)[nH][nH]c2=O)cc(Cl)c1O	6.6%	0.0%	x	3.2	8.4%	-3.2	-0.9%
26	O=C(COC(=O)c1ccccc1Nc1ccccc1)c1ccccc1	10.5%	-18.8%	3.7	1.7	-2.7%	21.1	-0.4%
27	CCCCOC(=O)c1nnc(-c2ccccc2)o1	1.3%	x	-4.7	5.1	u	11.7	-2.2%
28	Cc1ccnc(OC(C(=O)O)C(OCc2ccccc2)(c2ccc(F)cc2)c2ccc(F)cc2)n1 (stereo not given)	26.3%	-0.2%	4.1	6.2	-4.7%[15.4 µM]	18.6	8.1%
29	COc1ccccc1C(=O)NCc1ccc2c(c1)OCO2	8.9%	0.7%	6.8	3.9	12.5%	-8.6	2.3%
30	O=C1OCC2=C1C(c1ccc(F)cc1)Sc1ccccc1N2 (stereo not given)	-9.6%	-0.7%	9.9	1.8	-3.2%	-7.3	-1.0%
31	O=C(COc1cccnc1[N+](=O)[O-])NCc1ccc(F)cc1	8.7%	-1.0%	1.3	-3.1	u	2.5	2.2%
32	Cc1ccc(C(O)c2nc3ccccc3n2C)cc1 (stereo not given)	21.7%	2.3%	x	-0.8	-15.5%	14.3	0.1%
33	Cc1ccccc1NC(=O)c1ccccc1NC(=O)CCC(=O)O	28.6%	0.1%	-3.3	2.4	0.2%	-0.5	10.9%
34	CCOC(=O)C1=C(C)N(CCCC(=O)O)C(=O)NC1c1ccccc1OS(=O)(=O)c1ccc(C)cc1 (stereo not given)	1.2%	-1.3%	-0.4	8.9	x	-1.7	-14.3%
35	O=C(CN1CCN(c2nc(-c3ccccc3)cs2)CC1)Nc1ccc2c(c1)OCO2	13.3%	-0.1%	-28.8	-1.2	12.7%	-2.9	-9.6%
36	Cn1c(=O)c(C(=O)NCc2ccccc2Cl)c(O)c2ccccc21	6.0%	x	-4.3	-0.2	-34.9%[inhibitor]	2.0	0.3%
37	CCOc1cc(S(=O)(=O)NCc2ccco2)c(OCC)cc1-n1cnnn1	-6.7%	21.6%	14.4	4.4	u	-2.6	-0.9%
38	O=Cc1cccn1-c1cccnc1	8.9%	-0.2%	x	-1.1	-48.1%[inhibitor]	22.8	1.3%
39	CC(C(=O)O)c1ccc(C(=O)c2ccccc2)s1 (stereo not given)	x	-3.3%	-13.0	x	x	4.0	3.0%
40	CC(C)(C)NC(=O)NC(=O)COC(=O)c1c(F)cccc1Cl	4.1%	x	6.3	-7.0	-3.6%[15.4 µM]	-5.7	4.3%
41	CS(=O)(=O)N(CC(=O)N1CCN(c2ccccc2F)CC1)c1cccc(C(F)(F)F)c1	7.4%	-2.2%	6.8	2.6	10.0%	-1.3	-15.9%
42	CCOC(=O)C1CCCN(Cc2cccc(Cl)c2)C1 (stereo not given)	-12.0%	-3.8%	9.3	2.4	-38.4%[inhibitor]	-5.9	-3.4%
43	CN1CCN(C(=O)c2cccc(S(=O)(=O)N3CCCCC3)c2)CC1	-6.5%	-0.1%	7.6	-0.3	-65.7%[inhibitor]	-1.3	4.6%
44	O=C(O)CCC(=O)N1CCN(Cc2ccc3c(c2)OCO3)CC1	11.8%	x	4.4	-1.8	-14.7%	1.2	4.4%
45	O=C(/C=C/c1cccc([N+](=O)[O-])c1)OCC1CCCO1 (stereo not given)	-2.4%	-0.7%	-5.7	0.0	u	-17.0	-4.8%
46	O=C(CC(c1ccccc1)c1cc(Br)ccc1O)NCc1ccco1 (stereo not given)	0.8%	1.4%	-16.3	5.7	27.5%	7.2	-8.4%
47	Cc1cccc(NC(=S)N=Nc2c(O)n(CN3CCOCC3)c3ccccc23)c1C	13.4%	0.4%	x	5.8	-47.6%[inhibitor]	1.0	6.4%
48	CC(C#N)(Cc1ccccc1)Nc1ccccc1 (stereo not given)	x	-1.3%	x	x	u	x	-2.8%
49	COc1ccccc1NS(=O)(=O)c1cc2c3c(c1)CCN3C(=O)CC2	x	-2.7%	-0.5	x	-20.0%	1.3	2.1%
50	CCc1ccc(OCC(=O)Nc2ccc(N3CCN(C(=O)c4ccccc4)CC3)cc2)cc1	-11.8%	-0.5%	-21.6	x	23.0%	-12.5	-8.0%
51	Cc1ccccc1CN1CCN(C2CCC2)CC1CCO (stereo not given)	17.5%	0.7%	9.1	3.3	-3.2%[15.4 µM]	11.7	15.8%
52	COc1ccc(C(=O)Nn2c(C3CCC3)nc3ccccc3c2=O)c(OC)c1	-1.0%	-1.8%	2.0	-0.4	14.0%	12.0	-4.6%
